Source: PubChem (National Center for Advancing Translational Sciences (NCATS))
KAT2A inh = blocks human GCN5L2 histone acetyltransferase | Q92830 | GCN5L2 HAT assay, ThioGlo1 CoA-SH fluorescence | Potency, µM (top dose mostly 58.9 µM), without a hit: top-dose activity change, negative = inhibition, usual class: inhibitors | 390,000 tested, 0.21% active | AID 504327; active means well fitted inhibition curve with a large enough effect; inconclusive means small, poorly fitted or top-dose-only effect, or another doubt; inactive means no such curve, though single readings can be large or run the other way
Target sequence (Q92830 whole entry, looked up): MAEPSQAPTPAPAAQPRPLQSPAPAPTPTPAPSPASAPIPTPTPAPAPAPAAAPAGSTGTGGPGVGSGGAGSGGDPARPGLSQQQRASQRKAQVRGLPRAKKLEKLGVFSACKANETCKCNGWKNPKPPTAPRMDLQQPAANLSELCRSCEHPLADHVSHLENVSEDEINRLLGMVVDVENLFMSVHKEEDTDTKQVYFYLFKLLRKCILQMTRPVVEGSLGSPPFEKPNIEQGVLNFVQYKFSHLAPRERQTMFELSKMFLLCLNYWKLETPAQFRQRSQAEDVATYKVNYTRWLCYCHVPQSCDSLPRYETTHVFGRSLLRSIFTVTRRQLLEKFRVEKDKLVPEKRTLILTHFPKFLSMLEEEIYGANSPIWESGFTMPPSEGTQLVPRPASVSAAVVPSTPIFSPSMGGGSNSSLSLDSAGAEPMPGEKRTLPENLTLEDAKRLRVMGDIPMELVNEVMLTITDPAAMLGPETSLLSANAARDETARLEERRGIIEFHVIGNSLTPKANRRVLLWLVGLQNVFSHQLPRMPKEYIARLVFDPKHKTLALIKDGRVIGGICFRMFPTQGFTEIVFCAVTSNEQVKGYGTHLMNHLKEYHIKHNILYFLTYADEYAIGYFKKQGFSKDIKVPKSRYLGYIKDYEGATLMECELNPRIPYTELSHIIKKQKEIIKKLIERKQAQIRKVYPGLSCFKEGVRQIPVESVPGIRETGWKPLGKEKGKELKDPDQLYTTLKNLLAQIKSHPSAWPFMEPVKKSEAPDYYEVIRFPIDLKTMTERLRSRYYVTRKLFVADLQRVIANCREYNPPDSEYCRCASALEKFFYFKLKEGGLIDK
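Compounds, pin-transferred from DMSO stocks, meet 20nM GCN5L2 for 15 min before the reaction begins with H3(1-25) peptide (75uM) and acetyl-CoA (70uM). Thiol-reactive ThioGlo1 reports CoA release over 20 min at room temperature.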
* marks the source's active call; other numbers are inactive results; ? = inconclusive; & = joins results of further samples. On the % scale 0 is the no-effect control and ±100 the full control effect; potency means the concentration at half of the fitted maximal effect.

KAT2A inh	mol
-4%	CSc1ccc(Cn2nnc(C(=O)NCCc3ccc(Cl)cc3)c2N)cc1
?	COc1ccc(NC(=O)CSc2ccc(-c3ccco3)nn2)c(OC)c1
-14%	CC1CCCN(Cc2c(O)ccc3c(=O)c(-c4nc5ccccc5s4)c(N)oc23)C1 (stereo unspecified)
-8%&-1%	CCOc1ccccc1NC(=O)COC(=O)CC(C)(C)CC1=NS(=O)(=O)c2ccccc2N1
0%	CC(=O)OCCNC(=O)c1cc2ccccc2oc1=O
4%	C=CCOC(=O)C1=C(C)NC(=O)NC1c1ccc2c(c1)OCO2 (stereo unspecified)
-3%	CCOc1ccccc1CNC(=O)c1ccc2c(c1)sc1nc(-c3ccccc3)cn12
-12%	Cc1cc(C)c(C)c(S(=O)(=O)N2CCC(C(=O)Nc3ccc(S(=O)(=O)N4CCOCC4)cc3)CC2)c1C
1%	CCOC(=O)c1c(NC(=S)N2CCN(C)CC2)sc2c1CCN(C(=O)OCC)C2
-5%	COc1ccccc1CCNC(=O)C(=O)NCC(c1cccs1)S(=O)(=O)c1ccc(F)cc1 (stereo unspecified)
-1%	CCc1nc2ccccc2c(C(=O)Oc2cccc3cccnc23)c1C
-10%	CCN(CC)NC(=S)Nc1ccccc1
0%	O=C(NNC1=C(C(=O)C(F)(F)F)CCC1)c1cccnc1
-7%	Cc1cc(C)c(S(=O)(=O)N2CCN(Cc3ccc4c(c3)OCO4)CC2)cc1C
0%	COc1ccc(CNC(=O)COC(=O)c2ccc(C)c(S(=O)(=O)N3CCOCC3)c2)cc1OC
-2%	Cc1noc(C)c1COC(=O)[C@H](C)NS(=O)(=O)c1ccc(Cl)c(Cl)c1
-11%	Cc1ccc(/C=N/NC(=O)CSc2nc3ccccc3c(=O)n2-c2ccccc2C)s1
-5%	COC(=O)c1ccccc1C(=O)N1CCCC(CCC(=O)NCc2ccc(F)c(F)c2)C1 (stereo unspecified)
-4%	Cc1ccc(CSc2ncnc3c2cnn3Cc2ccccc2)cc1C
-9%	C[C@H](NC(=O)c1ccccc1Cl)C(=O)OCc1cn2cc(Cl)ccc2n1
-25%	Cc1nnc(NC(=O)c2cccc(F)c2)s1
-12%	COc1ccc(-c2c(C(F)(F)F)oc3c(CN4CCN(C)CC4)c(O)ccc3c2=O)cc1
-3%	COc1cc(NCCCCCCCN)c2ncccc2c1
-6%	O=C(C1CCN(S(=O)(=O)c2ccc(F)cc2)CC1)N1CCOCC1
0%	CCN(CC)CC(O)COc1ccc2c(c1)c(C(C)=O)c(C)n2-c1ccccc1 (stereo unspecified)
-12%	Cc1ccc(C(=O)NCCS(=O)(=O)N2CCN(c3ccccc3F)CC2)cc1[N+](=O)[O-]
1%	C/C(N)=C(/C#N)C(=O)COC(=O)c1ccncc1
-1%	C/C(=N\OC(=O)Nc1ccc(Cl)cc1)c1ncc(C(F)(F)F)cc1N1CCOCC1
-5%	Cc1nn(CC(=O)NCc2ccccc2)c(=O)c2ccccc12
-14%	Cc1ccccc1OCC(=O)Nc1cccc(Cl)c1C

(more compounds)
KAT2A inh	mol
1%	COc1ccc2[nH]c3c(=O)n(Cc4ccc(C(=O)N5CCCCCC5)cc4)c(=S)[nH]c3c2c1
?	Cc1ccc(C)c(N(CC(=O)NCCC2=CCCCC2)S(C)(=O)=O)c1
-6%	CNS(=O)(=O)c1cn(CC(=O)N2CCN(c3cc(C)ccc3C)CC2)cc1S(=O)(=O)NC
2%	CCOc1ccccc1NC(=O)c1oc2ccccc2c1NC(=O)C1CC1
-8%	CC(=O)c1sc(NC(=O)c2ccccc2C)nc1C
-3%	CC12CCC(C(=Nc3ccc(N=C4C(=O)C5(C)CCC4C5(C)C)cc3)C1=O)C2(C)C
-3%	CCc1cccc(NC(=O)c2ccc3c(=O)n4nc(Nc5ccccc5OC)sc4nc3c2)c1
?	COc1cc(OC)cc(-c2oc(=O)c3cc(OC)c(OC)cc3c2C#CCCO)c1
-5%	COc1ccc(C)cc1NCc1cccc(OC)c1OC
-6%	O=C(N=C1SC2CS(=O)(=O)CC2N1Cc1ccccc1Cl)C1CCCO1 (stereo unspecified)
-20%	Cc1ccc(C)c(S(=O)(=O)Nc2ccc(C(=O)NCC(c3ccco3)N(C)C)cc2)c1 (stereo unspecified)
-10%	COc1cc(NC(=O)CN(C)S(=O)(=O)c2ccc3[nH]c4c(c3c2)CCCC4)cc(OC)c1OC
1%	CC1CC(=O)Nc2ccccc2N1C(=O)CSc1nnnn1C (stereo unspecified)
8%	C/C=C/c1ccc(OC)cc1
-8%	CCN1/C(=C2/SC(=S)NC2=O)Sc2ccccc21
-6%	Cc1cccc(NC(=O)c2ccc(COc3ccc4ccccc4c3)o2)n1
0%	Fc1ccc(Nc2nc(N3CCOCC3)nc(N3CCOCC3)n2)cc1
1%	COCCN(C(=O)c1cc(Cl)ccn1)c1c(N)n(Cc2ccccc2)c(=O)[nH]c1=O
-2%	O=c1c2ccccc2nnn1CSc1nnc(-c2ccc3c(c2)OCO3)o1
2%	O=C(CSc1ncc(S(=O)(=O)c2ccc(Br)cc2)c(=O)[nH]1)NCc1ccc(Cl)cc1
2%	Cc1cc(C)n2nc(-c3ccccc3)cc2n1
-9%	COCCn1c(SCC#N)nnc1-c1ccc2c(c1)OCO2
-4%	Cc1cccc(C)c1OCC(O)Cn1nnc2ccccc21 (stereo unspecified)
-10%&20%&-19%	O=C1OCCN1/N=C/c1ccc([N+](=O)[O-])o1
-4%	COC(=O)[C@H](C)NC(=O)/C=C/c1ccc(OC)cc1
1%	CC(C)CSc1nsc(N)n1
-4%	C=CCNCCCCOc1ccc(C)cc1[N+](=O)[O-]
-2%	O=C(O)/C=C\C(=O)Nc1ccccc1C#Cc1ccccc1
0%	Cc1cc(C)n(CCNC(=O)c2cc(COc3c(F)cccc3F)on2)n1
2%	Cc1cc(NC(=O)CSc2ccnc(=O)[nH]2)no1

Grouped by structure: the entries above with an NH in an aromatic ring (five)
KAT2A inh	mol
1%	COc1ccc2[nH]c3c(=O)n(Cc4ccc(C(=O)N5CCCCCC5)cc4)c(=S)[nH]c3c2c1
-10%	COc1cc(NC(=O)CN(C)S(=O)(=O)c2ccc3[nH]c4c(c3c2)CCCC4)cc(OC)c1OC
1%	COCCN(C(=O)c1cc(Cl)ccn1)c1c(N)n(Cc2ccccc2)c(=O)[nH]c1=O
2%	O=C(CSc1ncc(S(=O)(=O)c2ccc(Br)cc2)c(=O)[nH]1)NCc1ccc(Cl)cc1
2%	Cc1cc(NC(=O)CSc2ccnc(=O)[nH]2)no1

Another view of some results above.
Cc1cc(C)n2nc(-c3ccccc3)cc2n1
- KAT2A inh = 2%

COCCn1c(SCC#N)nnc1-c1ccc2c(c1)OCO2
- KAT2A inh = -9%

Cc1cccc(C)c1OCC(O)Cn1nnc2ccccc21 (stereo unspecified)
- KAT2A inh = -4%

O=C1OCCN1/N=C/c1ccc([N+](=O)[O-])o1
- KAT2A inh = -10%&20%&-19%

Next part:
KAT2A inh	mol
-8%	Cc1noc(C)c1CCC(=O)N1CCCC(N2CCN(c3ccc(F)cc3)CC2)C1 (stereo unspecified)
-1%	COc1cc(NC(=O)c2ccc(Cl)cc2Cl)ccc1-c1cc2ccccc2oc1=O
-1%	COCC(N)(c1ccccc1)c1nc2ccccc2n1C (stereo unspecified)
-15%	COc1cccc(-n2cnc3sc4c(c3c2=O)CCC4)c1
-3%	CN(CC(=O)Nc1nc2ccc(F)cc2s1)S(=O)(=O)c1ccc(Cl)cc1
-8%	CC(C)CN(CC(C)C)c1nnc(NC(=O)Nc2cccc(C(F)(F)F)c2)s1
-2%	COc1ccc(C2C3=C(N=C4SCC(=O)N42)c2ccccc2CC3)cc1 (stereo unspecified)
1%	CC(=O)c1nnn(-c2ccc(F)cc2F)c1C
-10%	CCOC(=O)c1sc(C)nc1C1CCN(C(=O)OCC)CC1
-3%	O=C(CSCc1ccccc1)N1CCN(c2ccccc2)CC1
-5%	CCOC(=O)C1(C)Oc2ccc(S(=O)(=O)CC)cc2NC1=O (stereo unspecified)
-18%	COc1cc(-n2nnnc2SCC(=O)N2CCN(c3ccc(F)cc3)CC2)c(OC)cc1Cl
-3%	O=C(N/C(=C\c1cccnc1)c1nc2ccccc2[nH]1)c1cccc(Br)c1
-10%	Clc1ccc(-c2cc(COc3ccc4ccccc4c3)no2)cc1
-7%	CCc1ccc(NC(=O)CN2C(=O)c3ccccc3Sc3ccc(C(=O)N4CCCC4)cc32)cc1
3%	c1ccc(N2CCN(Cc3cnc(N4CCOCC4)s3)CC2)cc1
-8%	COc1ccc2sc(-c3ccc(SC)cc3)c(/C=C/c3ccc(OC)c(OC)c3)c2c1
-5%	COc1ccc(/C=C/C(=O)N2CCCC2)cc1OC
-3%	O=C(COc1cccnc1[N+](=O)[O-])N1CCc2ccccc2C1
-6%	Cc1c(NC(=O)/C(=C\c2ccccc2)NC(=O)c2ccccc2)c(=O)n(-c2ccccc2)n1C
-4%	CCN(C(=O)COC(=O)c1ccc(=O)n(Cc2ccccc2)n1)C1CCS(=O)(=O)C1 (stereo unspecified)
1%	COc1ccccc1N1CCN(C(=O)c2ccc(Br)s2)CC1
-18%	O=C(NNc1ccccc1F)c1ccccc1
-7%	CCCCOc1ccc(/C=N/NC(=S)Nc2cc(C)ccc2C)cc1
-4%	COc1ccc(Nc2cc(C)nc3nc(C)nn23)c(OC)c1
-21%	COc1ccc(/C=N/NC(=O)c2ccc(Br)cc2)c(OC)c1
-8%	CCOC(=O)c1ccc(NC(=O)CC2C(=O)N(c3ccc(F)cc3)C(=O)N2CCC(C)C)cc1 (stereo unspecified)
-2%	O=C(c1ccc(-n2cncn2)c([N+](=O)[O-])c1)N1CCN(S(=O)(=O)c2ccc(Cl)cc2)CC1
-5%	Cc1ccc2nc(-c3ccc(Cl)c(NC(=O)c4ccc(Br)o4)c3)oc2c1
-4%	O=c1n(Cc2ccc(F)cc2)c2ccccc2c2nc(-c3ccccc3)nn12

Some of these compounds in order of their number in KAT2A inh, falling:
Molecule | KAT2A inh
c1ccc(N2CCN(Cc3cnc(N4CCOCC4)s3)CC2)cc1 | 3%
COCC(N)(c1ccccc1)c1nc2ccccc2n1C (stereo unspecified) | -1%
CN(CC(=O)Nc1nc2ccc(F)cc2s1)S(=O)(=O)c1ccc(Cl)cc1 | -3%
COc1ccc(Nc2cc(C)nc3nc(C)nn23)c(OC)c1 | -4%
CCOC(=O)C1(C)Oc2ccc(S(=O)(=O)CC)cc2NC1=O (stereo unspecified) | -5%

(more compounds)
KAT2A inh	mol
0%	O=C(O)C1=C(C(=O)Nc2cc(C(F)(F)F)ccc2Cl)CCCC1
2%	COc1cccc(/C=N/n2cnnc2)c1OCc1ccccc1
-8%	COc1ccc(C(=O)Nc2sc(C(=O)N(C)C)c(C)c2C#N)cc1[N+](=O)[O-]
1%	O=C1CC(c2ccc(F)cc2)Cc2nc(NCc3ccco3)ncc21 (stereo unspecified)
0%	CSc1ncccc1C(=O)OCC(=O)N1CCc2ccccc21
0%	CC1=C(C(=O)OC(C)C)C(c2cccs2)n2ncnc2N1 (stereo unspecified)
-2%	CCN(CC)C(=O)C1CC(=O)OC12CCCCC2 (stereo unspecified)
-2%	NC(=O)C1CCN(C(=O)CCSc2ccc(Cl)cc2)CC1
-1%	COc1ccc(-c2nn(-c3ccccc3)cc2C(=O)NCC2CCCO2)cc1 (stereo unspecified)
-19%	CSc1ccccc1OCc1cc(C(=O)NCCCc2ccccc2)no1
-8%	COC(=O)[C@H](Cc1ccccc1)NC(=O)Cn1cnc(C(=O)Nc2ccc(C)c(C)c2)n1

Single values from the list:
CC1=C(C(=O)OC(C)C)C(c2cccs2)n2ncnc2N1 (stereo unspecified) in KAT2A inh → 0%
CCN(C(=O)COC(=O)c1ccc(=O)n(Cc2ccccc2)n1)C1CCS(=O)(=O)C1 (stereo unspecified) in KAT2A inh → -4%
CC1CCCN(Cc2c(O)ccc3c(=O)c(-c4nc5ccccc5s4)c(N)oc23)C1 (stereo unspecified) in KAT2A inh → -14%
C=CCNCCCCOc1ccc(C)cc1[N+](=O)[O-] in KAT2A inh → -4%

Some of the compounds tested; most or all hits stand in other tables.
